miR-21 reporter: raises the signal of a miR-21 reporter. Potency, µM (titrated, usually from 38.3 µM), inactives show at the highest dose reporter change, positive = more light. 340,000 tested, under 10 active. AID 2288. HeLa miR-21 FLuc reporter, luciferase, 48 h; active = well fitted rising curve with a large enough effect; inconclusive = small, poorly fitted or top-dose-only effect; inactive = no such curve, though single readings can be large or run the other way;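 also: % of control where 0% means no effect; miR-21 action dims this reporter so a rising signal means less miR-21 action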
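HeLa cells stably expressing CMV-driven firefly luciferase with a downstream miR-21 binding sequence, endogenously expressing miR-21, were treated with titrations (up to about 40uM final) for 48 hours at 37 degree Celsius. Luciferase luminescence was read after lysis.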
Rango dissoc inh: inhibition of RanGTP-driven Rango-importin beta dissociation; Biochemical FRET Rango-importin beta, RanGTP-induced dissociation; Potency, µM (doses to about 46.1 µM), without a hit: top-dose activity change, negative = inhibition; 340,000 tested, 0.071% active; AID 540253; active means falling FRET ratio curve, often poorly fitted, with flat reads before Ran was added; inconclusive means other falling curves, or compound fluorescence or quenching; inactive means flat or rising ratio curve;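 also: potency is read from the fitted curve at half-maximal effect; % of control where 0% means no effect; nearly all actives have a fitted effect of over 45% in size; -100% = wells without RanGTP and RCC1; the record marks most hits as doubtful in a second field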
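FRET read at 45 min, room temperature: inhibitors block the CFP/YFP signal rise when RanGTP (0.6 uM Ran, 2 mM GTP, 0.2 uM RCC1) frees Rango (0.1 uM) from importin beta (0.25 uM). Pre-read after 5 min compound exposure flags interference.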
GLA inh pH 4.5: blocks human alpha-galactosidase A at pH 4.5; activity change, negative = inhibition, % at 105 µM; 230,000 tested, under 10 active; purified enzyme, 4-MU-alpha-Gal fluorescence, pH 4.5; AID 1467; inconclusive = small, poorly fitted or top-dose-only inhibition, or a rising curve; inactive = flat fitted curve, though single readings scatter; no compound was filed as active;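 also: 0% = full activity with enzyme and -100% = basal without enzyme; dose as in the result columns while the protocol names 77 µM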
Target sequence (P06280 whole entry, looked up): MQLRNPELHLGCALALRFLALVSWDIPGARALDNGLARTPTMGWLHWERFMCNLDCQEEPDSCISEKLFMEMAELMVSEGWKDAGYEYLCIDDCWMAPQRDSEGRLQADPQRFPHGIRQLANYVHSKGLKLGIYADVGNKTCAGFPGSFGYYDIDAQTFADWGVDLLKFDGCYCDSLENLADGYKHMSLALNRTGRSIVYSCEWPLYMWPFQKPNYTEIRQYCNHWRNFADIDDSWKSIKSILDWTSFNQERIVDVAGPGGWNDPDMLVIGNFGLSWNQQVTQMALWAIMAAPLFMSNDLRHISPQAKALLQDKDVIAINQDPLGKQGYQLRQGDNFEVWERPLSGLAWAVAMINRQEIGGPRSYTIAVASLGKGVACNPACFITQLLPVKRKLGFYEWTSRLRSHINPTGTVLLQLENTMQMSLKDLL
Rango complex inh: inhibitors of Rango-importin beta complex formation; Q14974; Rango CFP/YFP FRET sensor + importin beta, 45 min; Potency, µM (highest dose often 92.2 µM), without a hit: at the highest dose inhibition of complex formation; 340,000 tested, 0.031% active; AID 540263; active = rising FRET ratio curve, often small or poorly fitted; inconclusive = mostly compound fluorescence or quenching in the first reads; inactive = flat curves in all reads;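 also: potency is read from the fitted curve at half-maximal effect; 0% = DMSO wells and 100% = buffer wells lacking importin beta; nearly all actives have a fitted effect of over 15% in size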
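FRET biosensor Rango (snurportin 1 IBB between N-terminal EYFP and C-terminal Cerulean), 50 nM in PBS/1 mM DTT/0.02% Tween-20/0.1% BSA, preincubated 5 min RT with compound; 0.125 microM importin beta added, 45 min RT, CFP/YFP FRET ratio read.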
* marks the source's active call; other numbers are inactive results; ? = inconclusive; / = no result given; & = joins results of further samples. An excerpt. The share of hits here may be higher or lower than overall.

#1 Cc1cc(C(=O)Nc2ccc([N+](=O)[O-])cn2)cs1
#2 OC(CN1CCCCC1)Cn1c(C(F)(F)F)nc2ccccc21 (centres undefined)
#3 COc1ccc(CCNC(=O)C2CCCN(S(=O)(=O)c3ccc(F)cc3)C2)cc1OC (centres undefined)
#4 CCOc1ccccc1C(=O)NCC(=O)NCC(c1ccco1)N1CCCCC1 (centres undefined)
#5 COc1ccccc1NC(c1cccnc1)c1ccc2cccnc2c1O (centres undefined)
#6 Cc1cccc(OCC(=O)Nc2nnn(C)n2)c1C
#7 Cc1cc(C)n(CC(O)COc2ccccc2[N+](=O)[O-])n1 (centres undefined)
#8 COc1ccc(Cn2nnc3c(=O)[nH]c(C4CCCN(C(=O)c5ccccc5)C4)nc32)cc1 (centres undefined)

assay / entry	1	2	3	4	5	6	7	8
miR-21 reporter	-31%	-7%	0%	/	-2%	-8%	-28%	-11%
Rango dissoc inh	21%	-16%	3%	-6%	2%	12%	-7%	-6%
GLA inh pH 4.5	/	5	/	/	-5	1	0	10
Rango complex inh	4.3%	-0.6%	0.9%	0.0%	2.1%	2.5%	-2.9%	-0.7%

#9 COc1ccc(-n2nc(C(=O)NCC(=O)NCCN(C)C)c3ccccc3c2=O)cc1
#10 O=C(NNC(=O)c1ccc[nH]1)Nc1cc(Cl)cc(Cl)c1
#11 CC(=O)NC(Cc1ccc(F)cc1)C(=O)O (centres undefined)
#12 CNC(=O)c1ccccc1NC(=O)c1cccc(S(=O)(=O)N2CCCCC2)c1
#13 COc1ccccc1C(=O)OCC(=O)NCCNC(=O)COC(=O)c1ccccc1OC
#14 COc1cc(-c2nc3n(n2)C(c2ccc(F)cc2)C2=C(CCCC2=O)N3)cc(OC)c1OC (centres undefined)
#15 COc1ccc(C=C2SC(=S)NC2=O)cc1
#16 COc1ccc(N2CC(C(=O)NCc3nnnn3-c3ccc(C)c(C)c3)CC2=O)cc1 (centres undefined)

assay / entry	9	10	11	12	13	14	15	16
miR-21 reporter	-7%	-21%	0%	-7%	-4%	-1%	/	-4%&0%
Rango dissoc inh	10%	-4%	-10%	-13%	8%	1%	?	1%
GLA inh pH 4.5	/	2	1	0	/	-2	/	/
Rango complex inh	-0.8%	-1.1%	0.7%	-1.7%	1.6%	2.0%	-1.8%	0.0%

#17 N=c1occ(C(=O)c2cc(F)ccc2O)cc1C(=O)NC1CCCCC1
#18 Nc1cc(=O)[nH]c(SCC(=O)Nc2ccc(Br)cc2)n1
#19 COc1ccc(CCC(=O)NC2CCC(C)CC2)cc1 (centres undefined)
#20 OC(COc1c(F)cc(Br)cc1F)CN1CCOCC1 (centres undefined)
#21 COC(=O)c1cc(C(=O)Nc2cc(C)ccn2)cc([N+](=O)[O-])c1
#22 CC(=O)Nc1sc(C)c(C)c1C(=O)OCC(=O)N(CC(C)C)C1CCS(=O)(=O)C1 (centres undefined)
#23 CCOc1nc2cnccc2n(CC(=O)Nc2cccc(C)c2C)c1=O
#24 COc1ccc(-c2ccc(=O)n(CC(=O)Nc3ccc4c(c3)OCCO4)n2)cc1

assay / entry	17	18	19	20	21	22	23	24
miR-21 reporter	-6%	-3%	7%	0%	-11%	-10%	-2%	-2%
Rango dissoc inh	7%	-4%	0%	3%	5%	-5%	-10%	-1%
GLA inh pH 4.5	-4	0	/	/	1	0	/	8
Rango complex inh	0.2%	-0.3%	1.2%	0.8%	2.9%	-2.5%	0.2%	-1.3%

Ordered by value in Rango complex inh (high to low): 7 from the list above.
#21 COC(=O)c1cc(C(=O)Nc2cc(C)ccn2)cc([N+](=O)[O-])c1
#19 COc1ccc(CCC(=O)NC2CCC(C)CC2)cc1 (centres undefined)
#20 OC(COc1c(F)cc(Br)cc1F)CN1CCOCC1 (centres undefined)
#23 CCOc1nc2cnccc2n(CC(=O)Nc2cccc(C)c2C)c1=O
#18 Nc1cc(=O)[nH]c(SCC(=O)Nc2ccc(Br)cc2)n1
#24 COc1ccc(-c2ccc(=O)n(CC(=O)Nc3ccc4c(c3)OCCO4)n2)cc1
#22 CC(=O)Nc1sc(C)c(C)c1C(=O)OCC(=O)N(CC(C)C)C1CCS(=O)(=O)C1 (centres undefined)

assay / entry	21	19	20	23	18	24	22
miR-21 reporter	-11%	7%	0%	-2%	-3%	-2%	-10%
Rango dissoc inh	5%	0%	3%	-10%	-4%	-1%	-5%
GLA inh pH 4.5	1	/	/	/	0	8	0
Rango complex inh	2.9%	1.2%	0.8%	0.2%	-0.3%	-1.3%	-2.5%

(listing goes on)
#25 CC(=O)NCCC(=O)Nc1nc2ccc(Oc3ccccc3)cc2s1
#26 COc1cccc(-c2cc(C(=O)N3CCc4ccccc4C3)no2)c1
#27 CCCC(=O)N1CCN(c2ccc([N+](=O)[O-])c(NC(C)c3ccccc3)c2)CC1 (centres undefined)
#28 CC(C)OP(=O)(OC(C)C)C(Nc1ccc(C(=O)O)cc1)c1ccccc1 (centres undefined)
#29 O=C(CC(=O)N/N=C\c1cccc(Cl)c1Cl)NCc1ccccc1
#30 COc1cc(NC(=O)c2ccc(C(C)(C)C)cc2)c(OC)cc1NC(=O)CN1CCCCC1
#31 CC1CCc2c(sc3nc(CSc4ncn[nH]4)[nH]c(=O)c23)C1 (centres undefined)
#32 CCn1c(C)c(C)c2cc(C(=O)N3CCN(c4cccc(C)c4C)CC3)ccc21

assay / entry	25	26	27	28	29	30	31	32
miR-21 reporter	-63%	-20%	3%	-2%	-8%	0%	11%	-8%&-5%
Rango dissoc inh	7%	5%	1%	5%	-5%	10%	2%	5%
GLA inh pH 4.5	/	-8	-2	-8	-3	-10	-5	/
Rango complex inh	4.1%	-2.9%	4.2%	1.2%	-0.7%	-0.9%	0.4%	1.1%

#33 CN1CC[n+]2cnc3ccccc3c21
#34 O=C1NCC(O)=C1C=NCCO
#35 COC(=O)Cn1c(CN2CCOCC2)nc2c1c(=O)[nH]c(=O)n2C
#36 COc1ccc(S(=O)(=O)N2CCN(c3cc(-c4ccccc4)nc4ncnn34)CC2)cc1
#37 Cc1sc(NC(=O)C2=COCCO2)nc1-c1ccc(Cl)cc1
#38 CC(=O)N1N=C(c2c(-c3ccccc3)c3cc(Br)ccc3[nH]c2=O)CC1c1ccco1 (centres undefined)
#39 Cc1c(CNC(=O)c2c([N+](=O)[O-])cnn2C)cnn1C
#40 COc1ccc(CCNC(=O)Cc2ccc([N+](=O)[O-])cc2)cc1OC

assay / entry	33	34	35	36	37	38	39	40
miR-21 reporter	-1%	-1%	6%	-7%	/	15%	3%	0%
Rango dissoc inh	1%	-5%	-23%	1%	-16%	1%	22%	0%
GLA inh pH 4.5	3	-7	-2	-3	/	-9	-3	-4
Rango complex inh	-0.7%	-0.3%	0.4%	-3.1%	-2.4%	0.3%	2.6%	3.6%

#41 CC(Sc1nnc(-c2cccnc2)n1C)C(=O)N1CCOCC1 (centres undefined)
#42 CC(=O)/C=C(\C)N=Nc1c(O)[nH]c2ccccc12
#43 COc1ccc(C(=O)NC(=S)NNC(=O)c2cnccn2)cc1
#44 CC(C)(C)NC(=O)/C(=C/c1ccccc1F)NC(=O)c1ccc([N+](=O)[O-])cc1
#45 CC(=O)c1ccc(OCC(C)C)c(CC(C(N)=O)C(N)=O)c1
#46 Cc1[nH][nH]c(=O)c1N=Nc1ccccc1Cl
#47 COc1ccc(C(=O)Nc2cc(Cl)ccc2Cl)c(OC)n1
#48 CCOC(=O)c1ccc(NC(=O)NCc2ccccc2)cc1

assay / entry	41	42	43	44	45	46	47	48
miR-21 reporter	/	-63%	-4%	-1%	1%	-55%	-18%	-17%
Rango dissoc inh	1%	2%	4%	0%	-5%	0%	11%	?
GLA inh pH 4.5	/	-1	2	5	-5	-19	-7	-3
Rango complex inh	-2.8%	?	-2.2%	4.2%	-0.6%	-0.5%	-2.1%	-3.3%

#49 CCc1ccc(NC(=O)C2CC(=O)N=C(N)S2)cc1 (centres undefined)
#50 COc1cccc(NC(=O)[C@H](C)NC(=O)N2CCn3c2nc2ccccc23)c1
#51 N#CC1=C(N)C(C#N)(C#N)[C@H](c2ccncc2)[C@H]2CC3(CC=C12)OCCO3
#52 COc1cccc(C(=O)O/N=C(\N)c2ccc(C)cc2)c1
#53 COc1ccc(N2CCN(Cc3nc4c(c(=O)n(C)c(=O)n4C)n3Cc3ccccc3C)CC2)cc1
#54 COc1cccc(CNC(=O)c2ccncc2)c1
#55 O=C(Cc1ccc(Cl)cc1)c1c[nH]c(C(=O)NCc2cccnc2)c1
#56 O=C1c2ccccc2C(Nc2ccc(Cl)cn2)N1c1ccccn1 (centres undefined)

assay / entry	49	50	51	52	53	54	55	56
miR-21 reporter	-5%	1%	-12%	-51%	/	1%	?	0%
Rango dissoc inh	-1%	21%	-8%	4%	0%	?	0%	-12%
GLA inh pH 4.5	-3	/	0	/	/	/	2	2
Rango complex inh	-1.4%	-0.8%	?	0.7%	2.2%	-0.3%	-0.5%	?

#57 O=C(CSc1nc2ncc(Cl)cc2[nH]1)Nc1ccccc1-c1ccccc1
#58 COc1ccc(CN2CCCCC2C)cc1C (centres undefined)
#59 Cc1ccc(Cn2nc(C)c(NC(=O)CSc3nc4c(c(C(F)(F)F)n3)CCc3ccccc3-4)c2C)cc1
#60 CC(=O)N1CCN(C(=O)c2c(-c3ccccc3)noc2C)CC1
#61 CN(C)CCCNC(NC(=O)c1cccs1)C(Cl)(Cl)Cl (centres undefined)
#62 O=C(NC1CC1)C1=C[C@H](c2c[nH]c3ccccc23)C[C@H](OCCCCO)O1
#63 Cn1cccc1/C=C1\SC(=S)N(NC(=O)c2ccccc2O)C1=O
#64 CCN1C(=O)CC(c2ccccc2)CC1=O

assay / entry	57	58	59	60	61	62	63	64
miR-21 reporter	-1%	2%	-1%	/	-10%	-4%	6%	/
Rango dissoc inh	2%	9%	5%	-6%	6%	-12%	-18%	-10%
GLA inh pH 4.5	/	-3	1	/	2	-1	-7	/
Rango complex inh	0.0%	0.8%	-3.2%	0.9%	8.5%	?	?	-0.7%

4 compounds picked at random from those above, as already listed:
#3 COc1ccc(CCNC(=O)C2CCCN(S(=O)(=O)c3ccc(F)cc3)C2)cc1OC (centres undefined)
#46 Cc1[nH][nH]c(=O)c1N=Nc1ccccc1Cl
#60 CC(=O)N1CCN(C(=O)c2c(-c3ccccc3)noc2C)CC1
#64 CCN1C(=O)CC(c2ccccc2)CC1=O

assay / entry	3	46	60	64
miR-21 reporter	0%	-55%	/	/
Rango dissoc inh	3%	0%	-6%	-10%
GLA inh pH 4.5	/	-19	/	/
Rango complex inh	0.9%	-0.5%	0.9%	-0.7%

(continued)
#65 O=C(COC(=O)c1cc([N+](=O)[O-])ccc1NCc1ccccc1)NCc1ccccc1Cl
#66 O=C(NCCS(=O)(=O)NCc1ccco1)c1ccccc1
#67 Cc1ccccc1-c1nnn(CC(=O)Nc2cccc(S(N)(=O)=O)c2)n1
#68 C[C@@H](NC(=O)[C@@H]1Cc2ccccc2CN1)C(=O)NCC1CCCO1 (some centres undefined)
#69 CC(C)(C)C(=O)Nc1ccccc1C(=O)OCC(=O)c1ccc2c(c1)OCCO2

assay / entry	65	66	67	68	69
miR-21 reporter	-3%	/	-2%	1%	-16%
Rango dissoc inh	5%	0%	-3%	7%	14%
GLA inh pH 4.5	-2	/	-2	/	5
Rango complex inh	-2.1%	0.0%	4.2%	7.3%	-2.1%
